TDP1 inh = blocks human tyrosyl-DNA phosphodiesterase 1 | recombinant TDP1, AlphaScreen DNA substrate cleavage | Q9NUW8 | Potency, µM (top dose mostly 130 µM), for inactives: at the top dose activity change, negative = inhibition, most hits filed as inhibitors | AID 485290 | hit rate 0.28% among 350,000; also: nearly all actives have a fitted effect of over 40% in size
Target sequence (Q9NUW8 whole entry, looked up): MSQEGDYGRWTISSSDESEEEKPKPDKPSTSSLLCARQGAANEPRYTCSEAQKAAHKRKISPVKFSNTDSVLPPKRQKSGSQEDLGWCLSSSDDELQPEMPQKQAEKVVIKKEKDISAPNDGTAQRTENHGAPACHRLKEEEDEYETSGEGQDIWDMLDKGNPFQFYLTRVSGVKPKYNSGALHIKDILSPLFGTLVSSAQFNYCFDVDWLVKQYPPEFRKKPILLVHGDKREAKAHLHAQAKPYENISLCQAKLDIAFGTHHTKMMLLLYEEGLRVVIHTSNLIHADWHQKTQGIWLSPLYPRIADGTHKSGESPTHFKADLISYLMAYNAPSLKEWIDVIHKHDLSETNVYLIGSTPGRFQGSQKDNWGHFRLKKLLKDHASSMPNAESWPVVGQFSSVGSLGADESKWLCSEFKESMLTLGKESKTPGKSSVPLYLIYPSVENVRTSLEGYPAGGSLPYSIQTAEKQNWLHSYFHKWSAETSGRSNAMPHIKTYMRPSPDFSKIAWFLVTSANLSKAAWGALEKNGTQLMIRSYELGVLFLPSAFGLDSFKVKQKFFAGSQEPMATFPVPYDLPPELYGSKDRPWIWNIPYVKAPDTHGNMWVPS
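Recombinant E. coli-expressed Tdp1 (1 nM) preincubated with compound 15 min at RT, then 5'-biotin/3'-phosphotyrosine-FITC DNA substrate (15 nM) added for 5 min. AlphaScreen beads (10 ug/ml) added, 10 min RT; tyrosine-FITC cleavage read as signal loss.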
N370S GC = inhibitors or activators of N370S glucocerebrosidase for Gaucher disease | P04062 | N370S GC spleen homogenate, 4MU-glucoside fluorescence | Potency, µM (top dose mostly 59.4 µM), for inactives: at the top dose activity change, negative = inhibition, most hits filed as inhibitors | hit rate 0.092% among 330,000 | AID 2101;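 also: 0% = full enzyme activity and -100% = no enzyme basal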
Active calls of the source: *; ? = inconclusive; nt = no result given; & = joins results of further samples; [ ] = remark or other dose. Calls follow the shape of the dose curve; as a rule, active = well fitted curve in the direction sought with a large enough effect; inconclusive = small, poorly fitted or top-dose-only effect, or another doubt; inactive = no such curve, though single readings can be large; an effect the other way counts as inactive or inconclusive. Unless noted, % is scaled to controls: 0 for no effect and ±100 for the full control effect; potency is read from the fitted curve at half-maximal effect. The list is partial, and most or all hits are left out here.

compound	N370S GC	TDP1 inh
Clc1cccc(-c2ccc3ncnc(NCc4cccnc4)c3c2)c1	-19%	1%
COc1ccccc1CN1CCN(Cc2ccc3ccccc3c2)CC1	0%	nt
O=c1c2ccccc2c2ccccc2c(=O)n1Cc1ccco1	0%	4%
Fc1cccc(/C=N/Nc2nncc3ccccc23)c1	0%	nt
COc1ccc(NC(=O)CSc2nnc(Cc3cccn3C)n2-c2ccc(F)cc2)cc1	-4%	5%
Cc1cc2ncn(-c3ncnc4sc(C)c(C)c34)c2cc1C	3%	0%
CCOc1ccccc1C1CC(c2cccc(NS(C)(=O)=O)c2)=NN1C(=O)c1ccccc1 (centres undefined)	14%	0%
Cc1ccc(S(=O)(=O)NCCOc2nc(N(C)C)nc(N(C)C)n2)cc1	11%	-1%
Cc1cc(C)n(-c2nc3ccccc3nc2N2CCCC2)n1	18%	-2%
CCOC(=O)c1cn(CC(=O)Nc2cccc(F)c2)nn1	0%	4%
O=C1CCN(Cc2ccc(Br)cc2)CCN1[C@H](CO)Cc1ccccc1	-8%	nt
CCCCCn1c(=O)[nH]c2cc(C(=O)N3CCN(c4ccc(C(C)=O)cc4)CC3)ccc2c1=O	-15%	nt
Cc1[nH]c2ccccc2c1/C=C(\C#N)S(=O)(=O)c1ccccc1	-2%	2%
CCOc1ccc2[nH]c(=O)c(CN(CCO)C(=O)c3ccc(F)cc3)cc2c1	6%	-1%
O=C(c1cccnc1)N1CCN(Cc2ccc3ccccc3c2)CC1	-10%	nt
O=C(Nc1ccc(-n2cnnn2)cc1)C(c1ccccc1)c1ccccc1	11%	0%
Nn1cnc2scc(-c3ccco3)c2c1=O	-3%	1%
CC(C)(C)N1CC(c2nc3ccccc3n2Cc2ccccc2)CC1=O (centres undefined)	22%	3%
COc1ccc(N(CC(=O)NC2CCCC2)C(=O)Cn2nnc(-c3ccc(C)o3)n2)c(OC)c1	-4%	12%
COc1ccccc1C(=O)Nc1ccc(S(=O)(=O)NC2=NCCCCC2)cc1	-1%	1%

Reprinted from the part before: 5 entries, then new ones.
compound	N370S GC	TDP1 inh
O=C(Nc1ccc(-n2cnnn2)cc1)C(c1ccccc1)c1ccccc1	11%	0%
Nn1cnc2scc(-c3ccco3)c2c1=O	-3%	1%
CC(C)(C)N1CC(c2nc3ccccc3n2Cc2ccccc2)CC1=O (centres undefined)	22%	3%
COc1ccc(N(CC(=O)NC2CCCC2)C(=O)Cn2nnc(-c3ccc(C)o3)n2)c(OC)c1	-4%	12%
COc1ccccc1C(=O)Nc1ccc(S(=O)(=O)NC2=NCCCCC2)cc1	-1%	1%
COc1c(-c2ccc(O)cc2)oc2cc(O)cc(O)c2c1=O	-26%	nt
Cc1ccc(CC(=O)OCCNC(=O)c2cccnc2)cc1	0%	-2%
CC(=O)Nc1nnc(SCC(=O)N2C(C)CCCC2C)s1 (centres undefined)	-1%	1%
NC(=O)CN(N=Nc1cccc([N+](=O)[O-])c1)c1cccc([N+](=O)[O-])c1	1%	3%
O=C(/C=C/c1ccccc1)NCCSc1ccc(Cl)cc1	nt	-3%
COc1ccccc1NC(=O)Nc1nc(CC(=O)Nc2ccc(OC)c(OC)c2)cs1	-4%	nt
COc1ccc(C)cc1NC(=O)CCNS(=O)(=O)c1ccc2c(c1)CCC(=O)N2	3%	3%
NS(=O)(=O)c1ccc(NC(=O)COC(=O)c2cccc(S(=O)(=O)N3CCCC3)c2)cc1	1%	5%
C=CCN1C(=O)N(/C=C/C)c2cccc3cccc1c23	7%	-2%
COc1ccc(S(=O)(=O)N/N=C\c2ccc(OC)c(COc3ccc(C)cc3[N+](=O)[O-])c2)cc1	20%	2%
CC1=C(C(=O)Nc2nc3ccccc3s2)C(c2ccco2)C(C#N)=C(SCC(=O)NC2CCCCC2)N1 (centres undefined)	6%	2%
COc1cc(C)c(S(=O)(=O)N2CCOCC2)c(C)c1C	11%	2%
O=c1n(-c2cccc(Cl)c2)c(=O)n2n1CCC2	7%	2%
COc1ccc(C(c2sc3nc(C)nn3c2O)N2CCC(O)CC2)cc1OC (centres undefined)	4%	6%
Cc1ccc(N(CC(N)=O)C2SC(=O)NC2=O)cc1 (centres undefined)	2%	-3%
COc1ccc(C(C(=O)Nc2ccc(C(C)C)cc2)N(C)C(=O)c2ccc(=O)[nH]c2)cc1 (centres undefined)	-7%	0%
CC12CCC(C(=O)Nc3ccccc3-n3cccc3)(CC1=O)C2(C)C (centres undefined)	6%	3%
COc1ccc(N(CC(=O)Nc2cccc(N(C)S(C)(=O)=O)c2)S(C)(=O)=O)cc1OC	3%	-2%
COc1ccc(Cl)cc1C(=O)CSc1nnnn1C1CCCC1	2%	-9%
O=c1oc2ccccc2c(N2CCC(c3ccccc3)CC2)c1[N+](=O)[O-]	16%	2%

4 entries from above, with two lines to a compound.
Every second line gives: N370S GC	TDP1 inh
> CC12CCC(C(=O)Nc3ccccc3-n3cccc3)(CC1=O)C2(C)C (centres undefined)
→ 6%	3%
> COc1ccc(N(CC(=O)Nc2cccc(N(C)S(C)(=O)=O)c2)S(C)(=O)=O)cc1OC
→ 3%	-2%
> COc1ccc(Cl)cc1C(=O)CSc1nnnn1C1CCCC1
→ 2%	-9%
> O=c1oc2ccccc2c(N2CCC(c3ccccc3)CC2)c1[N+](=O)[O-]
→ 16%	2%

The main list resumes, starting 3 compounds before the break.
compound	N370S GC	TDP1 inh
COc1ccc(N(CC(=O)Nc2cccc(N(C)S(C)(=O)=O)c2)S(C)(=O)=O)cc1OC	3%	-2%
COc1ccc(Cl)cc1C(=O)CSc1nnnn1C1CCCC1	2%	-9%
O=c1oc2ccccc2c(N2CCC(c3ccccc3)CC2)c1[N+](=O)[O-]	16%	2%
Nc1nc(C23CC4CC(CC(C4)C2)C3)cs1	?	6%
Cc1[nH][nH]c(=O)c1C(c1ccc2c(c1)OCO2)c1c(C)[nH][nH]c1=O	5%	9%
CN(C(=O)COC(=O)C1CCN(S(=O)(=O)c2c(Cl)cccc2Cl)CC1)C1CCS(=O)(=O)C1 (centres undefined)	-4%	-8%[0.505 µM]
O=C(CCS(=O)(=O)c1ccc(Br)cc1)Nc1ccccc1Cl	4%	nt
Cn1c(NC(=O)c2ccc(Cl)cc2)c(-c2ccccn2)c(=O)c2ccccc21	15%	2%
Cc1noc(C)c1COc1ccccc1C(=O)N1CCN(S(=O)(=O)c2ccccc2F)CC1	-3%	nt
O=C(Nc1nc2cc3c(cc2s1)OCCO3)c1ccco1	-15%	3%
CC(=O)Nc1ccc(NC(=O)c2c(-c3ccccc3)noc2C)cn1	4%	3%
COc1ccc(-c2cnc(N)n2CC2CCCO2)cc1 (centres undefined)	4%	15%
Cc1ccc(C(=O)Nc2ccccc2C(=O)NCC2CCCO2)cc1 (centres undefined)	9%	-1%
O=C(N1CCOCC1)N1CCC(n2nnc3cc(F)ccc32)CC1	-7%	-1%
CCCCN(C)C(=O)c1cn(CC)c2nc(C)ccc2c1=O	12%	1%
CC(=O)Nc1cccc(NC(=O)CS(=O)(=O)c2cn(CC(=O)N(C(C)C)C(C)C)c3ccccc23)c1	-13%	1%
Cc1ccc(S(=O)(=O)NCCc2ccncc2)cc1[N+](=O)[O-]	0%	nt
COc1ccccc1N1CCN(C2CCCN(Cc3cccc(O)c3)C2)CC1 (centres undefined)	-1%	nt
COC(=O)/C=C/C(=O)Nc1cccc(C(F)(F)F)c1	8%	5%
COc1ccc2c(c1)O[C@@H](c1ccc3c(c1)OCO3)[C@H](O)C2=O	2%	5%
Cc1c(C(=O)N/N=C/c2cccnc2)sc(N)c1C#N	-12%	nt
CCSc1nc2c([nH]c3ccccc32)c(=O)n1C	0%	0%
COc1ccc(C2C/C(=N\O)C(C)(C)O2)cc1 (centres undefined)	?	8%
Cc1c(C(=O)Nc2ccc3c(c2)OCCO3)cnn1C	5%	1%
CCN1C(=NCCOC)N[C@@H](c2ccccc2)[C@H](C(=O)OC)[C@H]1C	-4%	-3%
N#Cc1ccc(NC(=O)N2CCC(c3nc4c(nnn4Cc4cccc(Cl)c4)c(=O)[nH]3)CC2)cc1	-19%	6%
O=C(NCc1ccc(Cl)cc1)c1cc([N+](=O)[O-])ccc1Cl	1%	3%
COc1ccccc1N(C)S(=O)(=O)c1ccc(Cl)c(C(=O)NC2=NCCS2)c1	-12%	5%
CCCc1ncc(C[n+]2ccccc2C)c(N)n1	-7%	18%[56.1 µM]
O=C(O)CCN1C(=O)c2ccc(NC(=O)CSc3ccccc3)cc2C1=O	6%	1%
Cc1ccn2c(=O)c(C(=O)NCCCN3CCCCC3C)c(O)nc2c1 (centres undefined)	3%	1%&1%
CCOC(=O)CSc1nnc(CNC(=O)c2ccc(OC)cc2)n1-c1ccc(OC)cc1	4%	4%
O=[N+]([O-])c1ccc(Oc2ccc(C(F)(F)F)cn2)cc1	4%	5%
CN(c1ccccc1C(=O)NC1CCCCC1)S(=O)(=O)c1ccccc1	-3%	-1%
O=C(Nc1ccc([N+](=O)[O-])cc1)Nc1ccon1	-17%	-4%
CC(=O)Nc1ccc(NC(=O)C(C)OC(=O)CCC2CCCC2)cc1 (centres undefined)	2%	nt
O=C(Cc1ccccc1)N1CCN=C1SCc1cccc([N+](=O)[O-])c1	6%	5%
CC1CC(c2ccccc2)n2nc(NC(=O)CCc3ccccc3)nc2N1 (centres undefined)	-3%	0%
O=C(c1[nH]ncc1-c1cccc(Br)c1)C1CO1 (centres undefined)	-12%	5%
COCC(=O)N(Cc1cc2cc(C)ccc2[nH]c1=O)c1cccc(C)c1C	-1%	nt
COC(=O)C(CCCN1C(=O)c2ccccc2C1=O)(NC(C)=O)c1nn[nH]n1 (centres undefined)	0%	5%
COCCOc1cc(N(CC(=O)N(C)C)S(=O)(=O)c2ccccc2)c(Cl)cc1Cl	5%	0%
O=C(NC(Cc1ccccc1)C(=O)O)/C(=C\c1ccc(Br)cc1)NC(=O)c1ccc(Br)o1 (centres undefined)	-10%	8%
COC(=O)C1(C(=O)OC)NOC2C(=O)N(c3ccccc3)C(=O)C21 (centres undefined)	2%	3%
O=C(O)c1cccc(NC(=O)c2cccc(S(=O)(=O)N3CCc4ccccc43)c2)c1	-7%	nt
CCOc1cccc2cc(-c3csc(NC(=O)CCC(=O)N4CCC(C)CC4)n3)c(=O)oc12	8%	-2%
CSc1nc(-c2ccccc2)cc(C(F)(F)F)c1C#N	9%	nt
CCc1ccc(NC(=S)NCc2cccnc2)cc1	5%	7%
O=C1CN(C(=O)c2ccccc2F)C(c2ccc(F)cc2)c2cc(F)ccc2N1 (centres undefined)	-4%	nt
Cn1c(CN2CCN(CC#N)CC2)c(C#N)c2ccccc21	4%	5%
COC(Cc1ccccc1N1CCCC1=O)OC	0%	nt
COc1ccccc1C(=O)Nc1ccc2c(c1)nc(CCNC(=O)c1ccco1)n2C	-1%	4%[0.0935 µM]
CC1CCC(NC(=O)C2CCN(c3nc4ccccc4s3)CC2)CC1 (centres undefined)	-6%	nt
CCOC(=O)C1C(c2ccc(C)o2)NC(=O)NC1(O)C(F)(F)F (centres undefined)	1%	-2%
O=C(Nc1sc2c(c1C(=O)O)CCCCC2)c1ccccc1F	18%	2%
CSc1nsc(SCC(=O)Nc2cccc(C(=O)O)c2)n1	-12%	-4%
COC(=O)CC1C(=O)NCCN1C(=S)NC(=O)c1ccccc1[N+](=O)[O-] (centres undefined)	3%	?
CCOC(=O)c1oc2cccc(O)c2c1C	-7%	-5%
COc1ccc(-c2csc(NCc3ccco3)n2)cc1	5%	7%
CCOC(=O)CNC(c1ccccc1)c1cc(Br)ccc1NC(=O)CCN1CCOCC1 (centres undefined)	14%	5%
O=C(c1cccnc1NCc1ccc(F)cc1)N1CCOCC1	-7%	2%
Cc1ccc(C(=O)N/N=C\c2cc3c(cc2Br)OCO3)cn1	1%	-13%
COc1cccc(C2=NC(C)(C)NC(c3ccccc3O)C2)c1 (centres undefined)	2%	5%

Next entries
compound	N370S GC	TDP1 inh
CCc1cc(C(=O)NC(C)c2ccccc2)no1 (centres undefined)	nt	-1%
O=C(NCc1ccco1)/C(=C/c1cccnc1)NC(=O)c1cccc(Br)c1	3%	8%
COc1ccc(C(O)Cc2nc3ccccc3n2C)cc1OC (centres undefined)	10%	3%
COc1cc2c(cc1OC)C(c1ccc(N(C)C)cc1)CC(=O)N2 (centres undefined)	-3%	9%
CC1(C)CC2CC(C)(CN2C(=O)c2cc(-c3ccccc3)on2)C1 (centres undefined)	?	nt
CCOc1cccc(NC(=O)CSc2nncn2N)c1	0%	4%

Screens: PubChem, National Center for Advancing Translational Sciences (NCATS)
